# NPYLR7 ag: agonists of mosquito NPYLR7 receptor, primary screen, cell-based, Aedes aegypti, calcium fluorescence, mosquito biting behavior; Aedes aegypti neuropeptide Y-like receptor 7 (NPYLR7); activation, % at 10 µM; 0.15% of 270,000 active; HEK293T NPYLR7/Galpha15, GCaMP6s calcium fluorescence; AID 1259423, 2018; in the data active = activation above about 40%;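 also: 0% = vehicle and 100% = reference agonist at the receptor; some compounds past the cut are filed as inactive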
# NPYLR7 ag max-min: recorded beside NPYLR7 ag, whose call it bears; activation, %; measured here: Max-Min RFU normalised activation; some inactives read as strong as hits;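 span of the calcium signal over five minutes; 0% = vehicle and 100% = native peptide agonist; compound fluorescence can raise it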
# An asterisk follows results filed as active; & = joins results of further samples.
molecule,NPYLR7 ag,NPYLR7 ag max-min
CCOC(=O)C1(Cc2ccccc2C)CCCN(C(=O)c2cc(C3CC3)[nH]n2)C1 (centres undefined),-1,16
CCCc1c(C(=O)Nc2ccc(-c3onc4c3CCCC4)cc2)cnn1-c1ccccc1,23,31
C=C1C[C@]23C[C@@]1(O)CC[C@H]2[C@@]12C=C[C@H](O)[C@](C)(C(=O)O1)[C@H]2[C@@H]3CC(=O)O,1,1
CCC(=O)NCC(=O)Nc1ccc(OC)c(Oc2ccc(OC)cc2)c1,7,1
Cc1cc(-c2ccc(F)cc2)nc2cc(C(N)=O)nn12,-3,-4
Fc1ccc(Nc2nc(-c3ccco3)nc3cc(Cl)ccc23)cc1,0,8
CN(C)S(=O)(=O)c1ccc(C(=O)Nc2c3c(nn2-c2cccc(Cl)c2)CS(=O)C3)cc1 (centres undefined),-2,-4
Cc1ccc(NC(=O)CSc2cn(CC(=O)N3CCOCC3)c3ccccc23)cc1,-6,-10
O=C1CCc2cc(-c3csc(NCc4ccco4)n3)ccc2N1,15,4
Cc1ccc(/C=C2/SC(=NS(=O)(=O)c3cccs3)NC2=O)cc1,12,9
O=S(=O)(Nc1ccc(-n2cncn2)nc1)c1cccs1,7,0
O=C(CSc1ncnc2c1oc1ccccc12)NCc1ccco1,-10,-11
Cc1ccc(O)c(C(=O)NC2CC(=O)N(Cc3ccccc3C(F)(F)F)C2)c1 (centres undefined),3,3
O=C(CN(CC1CCCO1)c1ccnc(-c2ccccc2)n1)N1CCCC1 (centres undefined),9,7
O=C(CCC1CCCN(c2ncccn2)C1)NCc1ccccc1F (centres undefined),4,3
O=C(CSCC(=O)N1CCCCC1)Nc1ccc(I)cc1,4,2
Cc1ncc([N+](=O)[O-])n1CCO,-11&-12&-5&-1&-2,-17&-14&-11&-2&-2
O=C(Nc1ccc2c(c1)OCCO2)c1ccc(=O)[nH]n1,0,-3
O=C(CSC(C(=O)c1ccccc1)c1ccccc1)Nc1ccccc1 (centres undefined),-7,-8
Cc1cc(C)cc(N=C2NC(=O)/C(=C/c3ccco3)S2)c1,-3,-10
CC(=O)Nc1ccc(Nc2cc(-n3cccn3)ncn2)cc1,-5,-9
CCCCC(=O)Nn1cnc2c(cnn2-c2ccc(C)c(C)c2)c1=O,-5,-7
O=C(O)Cc1nc(-c2ccncc2)n[nH]1,3,1
CC(C)(C)c1ccc(C2SCCN2C(=O)Nc2cccc(F)c2)cc1 (centres undefined),1,9
Cc1nc2ccc(C(=O)NC(C)(C)C)cn2c1N(C)C(=O)CCc1ccccc1,16,11
CCOc1ccccc1CNC(=O)c1c(C)noc1-c1ccncc1,6,12
COC(=O)c1ccc(N2C(=O)CC(N(Cc3ccco3)C(=S)NCCc3ccccc3)C2=O)cc1 (centres undefined),2,-1
CCN(CC(=O)N1N=C(c2ccccc2Cl)CC1c1cc(OC)ccc1OC)C1CCCCC1 (centres undefined),-8,-5
COc1cc2c(C(=O)O)c(C)n(-c3cccc(C)c3)c2c2ccccc12,-9,-16
C=CCN(CC(=O)N1CCc2sccc2C1c1ccccc1C)C(=O)C(C)(C)CCl (centres undefined),-6,-5
O=C(O)CCN(CCC(=O)O)c1ccccc1O,-5,-7
Cc1ccc(Nc2nc(-c3c(C)nc4cc(C)ccn34)cs2)c(C)c1,-8,-14
CC(=O)c1nc(N2C(=O)CC(Cc3cc(C)cc(C)c3)C2=O)sc1C (centres undefined),2,1
COc1ccc(NC(=O)Cn2cc(OC)c(=O)cc2CSc2ncccn2)cc1,-2,-8
COc1ccc(C(C)=O)cc1Cn1c(C)c(C(=O)NCc2cccc(Cl)c2)sc1=O,16,12
COc1cc(C=C(C#N)c2nc3c(s2)CCCC3)cc(OC)c1OC,-10,-15
CCNC(=O)Nc1ccc(N(C)C)c(CN(C(=O)c2ccc(OC)cc2)C(C)c2ccccc2)c1 (centres undefined),35,45
COc1ccccc1/C=C1/SC(=S)N(CCC(=O)Nc2ccc(O)cc2)C1=O,-11,-17
COCCN(Cc1nc2ccccc2o1)C(=O)c1cnn(-c2ccccc2)c1C(F)(F)F,3,0
O=C(NCc1ccc(N2CCOCC2)nc1)C1CCCN(C(=O)c2ccc(Cl)cc2)C1 (centres undefined),-1,-2
CCOC(=O)C1(Cc2ccc(Cl)cc2)CCN(Cc2ccccn2)CC1,10,6
Cc1occc1C(=O)N1CCC(=O)N(Cc2ccc(F)cc2)C(C(C)C)C1 (centres undefined),9,0
C#CCNC(=O)CN1CC(C)OCC1C (centres undefined),16,11
Cc1cc(C)c2c(n1)nn1c(NCC(C)C)cc(C)nc21,0,5
CSCc1ccc(C(=O)N2CCCC(Nc3ccc(F)cc3)C2)o1 (centres undefined),-1,-1
C=CCN1C(=O)NC(c2ccccc2Cl)C2=C1CN(CC(=O)NC1CCCCC1)C2=O (centres undefined),-1,8
COCCN(Cc1cc(Cl)ccc1OS(=O)(=O)c1ccc(F)cc1)C(=O)C1CCC1,-7,-3
CC(NC(=O)c1cc(=O)n(C)c2ccccc12)c1cccs1 (centres undefined),3,2
COCCn1cncc1Cn1cnc(-c2ccccc2)c1-c1ccc(C)o1,-3,-3
CN(CC(=O)Nc1ccc(Cl)c(Cl)c1)C(=O)C1(C#N)CCCC1,1,-1
CCCc1nc(NCCSc2nnc(C)s2)c2cnn(C)c2n1,1,-3
Cc1cc(C)n(CC(C)n2ccnc2C2CCN(C(C)C)CC2)n1 (centres undefined),-1,-6
CCOc1ccc(CN2CCN(c3ccc4nnnn4n3)CC2)cc1,14,7
C/C=C(\C)CN1CCc2c([nH]c3ccccc23)C1c1nc2ccccc2n1C (centres undefined),-4&-1,-12&-5
O=C(NCC(O)c1cc(Cl)cc(Cl)c1)NC1CCSCC1 (centres undefined),3,2
c1cncc(-c2nc(-n3ccnc3)c3c4c(sc3n2)CCC4)c1,0,10

# More results follow:
molecule,NPYLR7 ag,NPYLR7 ag max-min
Cc1cccc(C(=O)NNc2nc(-c3ccccc3)c3cc(Br)ccc3n2)c1,-2,-8
Cc1noc(C)c1S(=O)(=O)NCCc1nnc2ccccn12,10,12
CCn1c(=NC(=O)c2ccc3ncsc3c2)sc2cc(Br)ccc21,-7,-11
CC(C)c1nc(CN(C)C(=O)c2cccc3ccnn23)cs1,5,0
Cc1cccc(S(=O)(=O)NC(=O)C2(C)CCN2C(=O)CC2CCCCC2)c1 (centres undefined),-2,-6
CCc1ccc2nc(N3CCN(C(=O)C4=COCCO4)CC3)sc2c1,-1,-1
Cc1nc(SCc2cccc(C(=O)NCc3cccnc3)c2)nc(N2CCN(c3cccc(C(F)(F)F)c3)CC2)c1C,-2,2
CC1=C(C(=O)N2CCCC(N3CCN(c4ccccc4F)CC3)C2)OCCO1 (centres undefined),16,4
Clc1cc2c(cc1CN1CCCC1c1ccccn1)OCO2 (centres undefined),14,5
CN1C(=O)C(=Cc2cccc(Br)c2)C(=O)N(C)C1=O,-1,-2
N#C/C(=C\N1CCC(C(=O)O)CC1)C(=O)NCCc1ccccc1,8,7
COc1ccc(C(=O)N(CC(=O)Nc2nc(CC(=O)O)cs2)CC(C)C)cc1,-5,-14
NC(=O)C1CCN(C(=O)COc2ccc3c(c2)C(=O)CC3)CC1,-3,-6
C=c1cc(C)n(CC(=O)Nc2ccc3c(c2)OCO3)c(=O)c1=C1N=C(c2ccc(F)cc2)NO1,3,-3
CCCn1ccc2cc(NC(=O)CC3CCCO3)ccc21 (centres undefined),0&1,-6&0
CN(C)c1cccc(Nc2cc3c(cn2)cc(-c2cnn(C)c2)n3Cc2ccccc2)c1,-9,-14
COc1ccc(N2CCN(C(=O)c3ccc[nH]c3=O)CC2)cc1,5,2
COC(=O)c1c(C)cc(OC)cc1O,-12,-14
CC(C)CC1C2=C(CCCC2=O)OC(=N)C1C#N (centres undefined),-1,-3
CCCCN(CC(=O)Nc1cc(C(C)(C)C)nn1-c1ccc(Cl)cc1)C(=O)Nc1ccccc1OC,21,30
CCN(CC)CCCC(C)NC(=O)c1cc(-c2ccccc2Cl)nn1-c1ccc(F)cc1 (centres undefined),-1,5
Nc1ncccc1-c1nc2ccccc2o1,1,3
CNC(=O)[C@@H]1C[C@H](N)CN1C(=O)c1ccccc1Oc1ccccc1,1,-8
CCOCCCNC(=O)c1cc(NC(=O)c2cccc(Cl)c2)ccc1N1CCc2ccccc2C1,10,12
Cc1cc(OCc2nc(SCC(N)=O)n[nH]2)ccc1Cl,1,-1
CC(=O)O[C@H]1CC[C@H](C)[C@@]2(C)[C@H](OC(C)=O)c3c(C)coc3C(=O)[C@H]12,-9,-13
O=C(c1ccccc1O)N1N=C2CCCCC2C1(O)C(F)(F)F (centres undefined),5,5
COc1ccc(S(=O)(=O)Oc2ccccc2CN(Cc2ccc(F)cc2)C(=O)NC(C)C)cc1,-8,-2
Cc1nc2ccccc2nc1N1CCN(C(=O)c2ccc(C(F)(F)F)cc2F)CC1,17,17
COc1cccc(C(C2Sc3nc(C)nn3C2=O)N2CC(C)OC(C)C2)c1 (centres undefined),12,10
CCOCCCN(CC(=O)N(CCc1ccccc1)Cc1ccc(C)o1)C(=O)Nc1cccc(F)c1,3,12
C=CC(=O)N1CCCN(c2nc3ccccc3nc2-c2ccccc2)CC1,3,1
CC1CC(C)CC(S(=O)(=O)N2CCC(C(=O)O)CC2)C1 (centres undefined),31,14
Cc1ccc(S(=O)(=O)NCC(c2ccc3c(c2)CCCN3C)N(C)C)cc1C (centres undefined),-3,-5
CC(=O)N1CCc2c(nc(C)nc2N2CCC(C(C)N3CCCC3)CC2)C1 (centres undefined),6,4
CC1(c2ccc3c(c2)OCO3)NC(=O)N(Cc2cccc(Cl)c2)C1=O (centres undefined),8,5
O=C(c1ccccc1)N1CCN(c2ccc([N+](=O)[O-])cc2F)CC1,21,-4
COc1ccc(CCn2nc(C(=O)NC3CC3)c3c2CCN(C(=O)C2Cc4ccccc4O2)C3)cc1 (centres undefined),6,-1
COc1cccc(CN(C)C(=O)c2sc(=O)n(Cc3ccccc3OC(C)=O)c2C)c1,11,7

# Structures above that contain a Cl atom, in the order listed:
molecule,NPYLR7 ag,NPYLR7 ag max-min
Fc1ccc(Nc2nc(-c3ccco3)nc3cc(Cl)ccc23)cc1,0,8
CN(C)S(=O)(=O)c1ccc(C(=O)Nc2c3c(nn2-c2cccc(Cl)c2)CS(=O)C3)cc1 (centres undefined),-2,-4
CCN(CC(=O)N1N=C(c2ccccc2Cl)CC1c1cc(OC)ccc1OC)C1CCCCC1 (centres undefined),-8,-5
C=CCN(CC(=O)N1CCc2sccc2C1c1ccccc1C)C(=O)C(C)(C)CCl (centres undefined),-6,-5
COc1ccc(C(C)=O)cc1Cn1c(C)c(C(=O)NCc2cccc(Cl)c2)sc1=O,16,12
O=C(NCc1ccc(N2CCOCC2)nc1)C1CCCN(C(=O)c2ccc(Cl)cc2)C1 (centres undefined),-1,-2
CCOC(=O)C1(Cc2ccc(Cl)cc2)CCN(Cc2ccccn2)CC1,10,6
C=CCN1C(=O)NC(c2ccccc2Cl)C2=C1CN(CC(=O)NC1CCCCC1)C2=O (centres undefined),-1,8
COCCN(Cc1cc(Cl)ccc1OS(=O)(=O)c1ccc(F)cc1)C(=O)C1CCC1,-7,-3
CN(CC(=O)Nc1ccc(Cl)c(Cl)c1)C(=O)C1(C#N)CCCC1,1,-1
O=C(NCC(O)c1cc(Cl)cc(Cl)c1)NC1CCSCC1 (centres undefined),3,2
Clc1cc2c(cc1CN1CCCC1c1ccccn1)OCO2 (centres undefined),14,5
CCCCN(CC(=O)Nc1cc(C(C)(C)C)nn1-c1ccc(Cl)cc1)C(=O)Nc1ccccc1OC,21,30
CCN(CC)CCCC(C)NC(=O)c1cc(-c2ccccc2Cl)nn1-c1ccc(F)cc1 (centres undefined),-1,5
CCOCCCNC(=O)c1cc(NC(=O)c2cccc(Cl)c2)ccc1N1CCc2ccccc2C1,10,12
Cc1cc(OCc2nc(SCC(N)=O)n[nH]2)ccc1Cl,1,-1
CC1(c2ccc3c(c2)OCO3)NC(=O)N(Cc2cccc(Cl)c2)C1=O (centres undefined),8,5

# Reformatted field by field: 2 of the compounds above
CC1(c2ccc3c(c2)OCO3)NC(=O)N(Cc2cccc(Cl)c2)C1=O (centres undefined)
  NPYLR7 ag = 8; NPYLR7 ag max-min = 5

COc1cccc(CN(C)C(=O)c2sc(=O)n(Cc3ccccc3OC(C)=O)c2C)c1
  NPYLR7 ag = 11; NPYLR7 ag max-min = 7

# Source: PubChem (Fisher Drug Discovery Resource Center)

# These rows are one share of the data; the hit share may differ from the screen's.
